Screens (PubChem)
Mtb bLac sens = beta-lactam sensitization of Mtb H37Rv; M. tuberculosis H37Rv growth with meropenem, percent inhibition; hits of this screen are not shown here; inhibition, % at 25 µM; 0.27% of 330,000 active;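 active = about 74% or more and at least 40 points above the plate without the antibiotic, then above 30% in a dose series; inconclusive = first-round hits that could not be retested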;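 note: growth measured after seven days incubation then overnight dye step; 0% = bacteria only wells and 100% = bacteria with antibiotic; twin plates without the antibiotic show which effects depend on it; some results filed as inactive read as strong as hits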
* = called active by the depositor; ? = inconclusive.

SMILES	Mtb bLac sens
COC(=O)C1=C(C(=O)OC)[C@]2([C@H]3CCCCN[C@@H](Cc4ccccc4)C(=O)N3Cc3ccccc3)C=C[C@H]1O2	2.1
CCc1c(C)sc(NC(=O)c2ccoc2C)c1C(N)=O	5.5
CC(=O)Nc1ccc(NC(=O)COC(=O)[C@@H]2CCCN2C(=O)c2cccs2)cc1	-1.1
Cc1ccc(S(=O)(=O)CCC(=O)N2CCN(c3ccccc3O)CC2)cc1	-8.6
Cc1c(C(=O)Nc2nnc(C3CC3)s2)oc2ccccc12	3.1
C=CC[C@@H](CC(=O)NCCO)C(=O)N[C@H](COC(=O)[C@H](CC=C)CC(=O)OC(C)(C)C)Cc1c[nH]c2ccccc12	-4.3
COc1ccc(N(Cc2ccccc2)S(=O)(=O)c2cccc(C(=O)Nc3ccccn3)c2)cc1	1.2
Cc1c(C)c2ccc(OCC(=O)N3C[C@H]4C[C@@H](C3)c3cccc(=O)n3C4)c(C)c2oc1=O	-4.3
CCCN(CC(=O)Nc1ccccc1C)C(=O)c1sc2ccccc2c1Cl	-3.3
COc1ccc(C(=O)N2CCSCC2)cc1OC1CCN(C(C)=O)CC1	-2.9
CCN(C(=O)COC(=O)c1ccc(O)cc1)c1cccc2ccccc12	0.6
COc1ccc(S[C@@H](CCN2CC[C@H](NC(=O)OCc3ccccc3)CCC2=O)c2ccccc2)cc1	-1.0

Arranged by length of the SMILES (descending): some entries from above
SMILES	Mtb bLac sens
COC(=O)C1=C(C(=O)OC)[C@]2([C@H]3CCCCN[C@@H](Cc4ccccc4)C(=O)N3Cc3ccccc3)C=C[C@H]1O2	2.1
Cc1c(C)c2ccc(OCC(=O)N3C[C@H]4C[C@@H](C3)c3cccc(=O)n3C4)c(C)c2oc1=O	-4.3
Cc1ccc(S(=O)(=O)CCC(=O)N2CCN(c3ccccc3O)CC2)cc1	-8.6
COc1ccc(C(=O)N2CCSCC2)cc1OC1CCN(C(C)=O)CC1	-2.9

The list continues:
SMILES	Mtb bLac sens
COc1ccccc1N1CCN(C2CCCN(C(=O)c3oc(C)cc3C)C2)CC1 (stereo not given)	?
O=C(COc1ccc(S(=O)(=O)NC2CCCCC2)cc1)NC1CC1	0.0
CNc1snc(C)c1C(=O)OCC(=O)c1ccc(OC)c(F)c1	-1.3
O=C(COC(=O)c1ccc(Cl)nc1)Nc1cccnc1Cl	4.1
O=C(COC(=O)[C@@H]1CCCN1S(=O)(=O)c1ccccc1F)NCc1ccc2c(c1)OCO2	-5.0
O=S(=O)(NCc1ccc(F)cc1)c1ccccc1Br	0.8
COc1c2ccoc2nc2c(OC)c(OC[C@@H](O)C(C)(C)O)ccc12	-3.9
C[C@H](CO)N1C[C@H](C)[C@@H](CN(C)Cc2ccc(C(=O)O)cc2)Oc2c(NS(=O)(=O)c3cn(C)cn3)cccc2C1=O	7.8
CN(CC(=O)N1CCC(C(N)=O)CC1)S(=O)(=O)c1ccc2ccccc2c1	-4.0
COc1ccc(OC)c(S(=O)(=O)N2CCN(CC(O)CN3CCOCC3)CC2)c1 (stereo not given)	-6.1
COc1ccc(C(C)=NNc2ccc([N+](=O)[O-])cc2S(=O)(=O)Nc2ccccc2C(=O)O)c(OC)c1	-2.9
COc1ccc(NC(=O)CSc2nnnn2C2CC2)cc1S(=O)(=O)N1CCOCC1	-1.6

For reference, 3 of the compounds above.
SMILES	Mtb bLac sens
COc1ccc(OC)c(S(=O)(=O)N2CCN(CC(O)CN3CCOCC3)CC2)c1 (stereo not given)	-6.1
COc1ccc(C(C)=NNc2ccc([N+](=O)[O-])cc2S(=O)(=O)Nc2ccccc2C(=O)O)c(OC)c1	-2.9
COc1ccc(NC(=O)CSc2nnnn2C2CC2)cc1S(=O)(=O)N1CCOCC1	-1.6

Next entries
SMILES	Mtb bLac sens
O=C(CSc1cc(Cl)ccc1Cl)NC1CC1	-3.5
CC(=O)c1cc2c(cc1NC(=O)Cc1ccsc1)OCO2	-14.6
Nc1c(N(CCO)C(=O)C2CCCC2)c(=O)[nH]c(=O)n1Cc1ccccc1	-2.4
Nc1ccn([C@H]2CS[C@@H](CO)O2)c(=O)n1	1.6
CC(=O)c1ccc(S(=O)(=O)Oc2ccc(C(=O)O)cc2Cl)cc1	-11.7
CC(=O)Nc1ccc(C(=O)CN2C(=O)NC3(CCCCCC3)C2=O)c(F)c1	-6.9
CC(=O)Nc1cccc(C)c1	-2.0
CC1(NC(=O)Nc2cccc(Br)c2)CCS(=O)(=O)C1 (stereo not given)	-5.7
O=C(CCNC(=O)c1ccccc1)NNC(=O)c1ccc(F)cc1	-2.5
Cc1cccc(Nc2nnc(SC(C)C(=O)NC3CC3)s2)c1 (stereo not given)	-7.5
O=C(CNS(=O)(=O)c1ccc(Br)cc1)N1CCN(Cc2ccccc2)CC1	?
COc1ccc(CC(=O)OCC(=O)NCc2ccco2)cc1	-1.1

A different layout for 2 compounds above:
| smiles | Mtb bLac sens |
| --- | --- |
| C[C@H](CO)N1C[C@H](C)[C@@H](CN(C)Cc2ccc(C(=O)O)cc2)Oc2c(NS(=O)(=O)c3cn(C)cn3)cccc2C1=O | 7.8 |
| C=CC[C@@H](CC(=O)NCCO)C(=O)N[C@H](COC(=O)[C@H](CC=C)CC(=O)OC(C)(C)C)Cc1c[nH]c2ccccc12 | -4.3 |

(continued)
SMILES	Mtb bLac sens
COc1ccc(NC(=O)N(C)C[C@H]2Oc3ccc(NS(=O)(=O)c4ccc(OC)cc4)cc3C(=O)N([C@H](C)CO)C[C@@H]2C)cc1	1.0
CCCN(CCC)CCN1C(=O)C2C(C(=O)Nc3cccc(SC)c3)C3C=CC2(O3)C1C(=O)NC1CCCCC1 (stereo not given)	-4.8
COc1ccc(CNCc2cc(Cl)ccc2O)cc1	-5.0
O=C(COC(=O)c1cc([N+](=O)[O-])ccc1N1CCOCC1)Nc1cccc(F)c1	-9.3
COC(=O)c1cc(CNC(=O)C2CC(=O)N(c3ccc4c(c3)OCCO4)C2)ccc1OC (stereo not given)	2.0
COC(=O)C1=C(c2ccc(-c3ccccc3)c(F)c2)C[C@@H]2CC[C@H]1N2C(=O)NCCCOC(C)C	-5.5
CCOC(=O)c1ccc(N2C(=O)[C@@H](c3ccccc3)[C@H]2c2ccccc2)cc1	5.9
O=C(c1ccco1)N1CCCC(c2nc3c(nnn3Cc3c(Cl)cccc3Cl)c(=O)[nH]2)C1 (stereo not given)	-2.2
CCCCC(C(=O)NC(C)(C)C)N(Cc1ccccc1)C(=O)c1snc(C(N)=O)c1N (stereo not given)	-2.3
O=C(Cc1cccc(NC(=O)C2CCCN(C(=O)C3CCCCC3)C2)c1)Nc1cccc(C(=O)N2CCCC2)c1 (stereo not given)	1.5
O=C([C@@H]1CCCN1C(=O)c1cccs1)N1CCN(S(=O)(=O)c2cccc(F)c2)CC1	-7.4
Cc1ccc(-c2csc(NC(=O)c3c(C)noc3C)n2)s1	94.2
C=CCNC(=O)c1ccccc1NC(=O)C1CCN(S(=O)(=O)c2ccc(SC)cc2)CC1	-27.1
COc1ccc(OCc2cc(C(=O)N3CCN(C4CCCC4)CC3)no2)c(Cl)c1	22.2
COc1cc(NC(=O)CN2C(=O)NC3(CCOc4ccccc43)C2=O)cc(OC)c1 (stereo not given)	0.9
CCOC(=O)C1CCN(C(=O)COC(=O)c2c(C)c(CC)nc3ccccc23)CC1	5.1
CN(Cc1ccccc1)C(=O)COC(=O)c1cc(=O)c2ccccc2o1	1.5
COc1cc(-c2ccc3c(=O)c4ccccc4sc3c2)cc(OC)c1OC	-1.1
COc1ccccc1N(C)S(=O)(=O)c1ccc(C(=O)NCC2CCCCC2)cc1	-0.1
CC1CCN(C(=O)CN2c3cccc4cccc(c34)S2(=O)=O)CC1	-3.4
O=C(NCC1CCCCC1)c1cc(S(=O)(=O)N2CCCCC2)ccc1Cl	0.1
CC[C@H]1C/C=C\Cc2ccccc2[C@@H](C(=O)C[C@@H](O)CC(C)=O)OC1=O	0.8
COc1cccc(C2=CC(=O)C[C@H](c3ccc(Cl)cc3)C2)c1	41.8
CC1(NC(=O)Nc2cc([N+](=O)[O-])ccc2O)CCS(=O)(=O)C1 (stereo not given)	-2.7

Taken from above.
Under Mtb bLac sens, COc1ccc(CC(=O)OCC(=O)NCc2ccco2)cc1 shows -1.1
Under Mtb bLac sens, O=C(COC(=O)[C@@H]1CCCN1S(=O)(=O)c1ccccc1F)NCc1ccc2c(c1)OCO2 shows -5.0

The list continues:
SMILES	Mtb bLac sens
COc1ccc(Cl)cc1C(=O)OCC(=O)NCc1cccs1	64.8
COc1ccc(Cl)cc1NC(=O)C(C)OC(=O)Cn1cc(C(F)(F)F)ccc1=O (stereo not given)	1.8
Cc1ccnc(NC(=O)c2cccc(NC(=O)CC3SC(N4CCCCC4)=NC3=O)c2)c1 (stereo not given)	2.9
CC(=O)c1c(C)[nH]c(C(=O)OCC(=O)Nc2cccnc2Cl)c1C	1.3
CCN1C(=O)[C@@H]2[C@@H](c3ccc(-c4ccc(OC)cc4)c(OC)c3)N3CCCC[C@@]3(C(=O)OC)[C@@H]2C1=O	-3.8
COc1ccccc1C(=O)COC(=O)c1cccc(-n2cnnn2)c1	2.3
O=C(CCC(=O)c1ccc(F)cc1)NCC1(N2CCCCC2)CCCCC1	-3.8
CC1CC1C(=O)OCC(=O)Nc1cccc(F)c1 (stereo not given)	7.6
O=C(N=C1SC2CS(=O)(=O)CC2N1c1ccccc1)c1cccc([N+](=O)[O-])c1 (stereo not given)	3.3
CCN(C[C@H]1N[C@@](CC)(C(=O)OC)[C@H]2C(=O)N(Cc3ccccc3)C(=O)[C@@H]12)C(=O)Nc1ccc(C)cc1	-0.2
CC(NC(=O)c1ccco1)C(=O)O (stereo not given)	7.0
Cc1nc(/C(=N/O)C(N)=O)cs1	3.1
O=C(Cn1ccc(NC(=O)OCc2ccccc2)nc1=O)NCCCN1CCCC1=O	6.8
CCOC(=O)CCC(=O)Nc1ncnc2c1C(c1ccccc1)c1c(ccc3ccccc13)O2 (stereo not given)	5.2
Cc1ccc(NC(=O)CCc2ccc(C)o2)c(Br)c1	93.6
CCC(C)Sc1ccc(-c2nc3ccc(C)cn3c2NCc2ccccc2)cc1 (stereo not given)	-1.1
Cn1c(N)c(C(=O)CSc2nnc(C3CC3)n2Cc2ccccc2)c(=O)[nH]c1=O	4.3
O=S(=O)(Nc1ccc2c(c1)OCO2)c1cccc(Br)c1	-6.1
CC[C@@]1(C(=O)OC)N[C@H](CN(C)C(=O)C2CCCCC2)[C@@H]2C(=O)N(Cc3ccccc3)C(=O)[C@@H]21	-5.6
C=CC[C@@H](CC(=O)N[C@H](CO)Cc1ccccc1)C(=O)NCCOC(=O)[C@@H](CC=C)Cc1ccc(F)cc1	3.8
O=C(CN1C(=O)NC(Cc2ccccc2)C1=O)Nc1ccc(F)c(F)c1F (stereo not given)	-1.1
CCN1C(=O)[C@@H]2[C@@H](c3ccc(-c4ccc(Cl)c(Cl)c4)c(OC)c3)N3CCC[C@@]3(C(=O)OC)[C@@H]2C1=O	80.3
Cc1ccc(S(=O)(=O)Nc2nnc(C3CCCCC3)s2)cc1	2.7
O=C(CNS(=O)(=O)c1ccc2c(c1)OCCCO2)N1CCN(Cc2ccccc2)CC1	-2.4
CN(c1ccccc1)S(=O)(=O)c1cccc(NC(=O)COc2cccc([N+](=O)[O-])c2)c1	-1.9
C#CCOCCOCCOCCNc1nc(N2CCN(C(=O)CCCCCCCCCCNC(=O)[C@H](CCCCN)n3cc(CCO)nn3)CC2)nc(N2CCN(C(=O)CCCCCCCCCCNC(=O)[C@H](CCCN=C(N)N)n3cc(C[C@@H](C)CC)nn3)CC2)n1	98.9
O=C(COC(=O)c1ccccc1OCc1ccc(F)cc1)NCC1CCCO1 (stereo not given)	2.8
O=C1N[C@@H](Cc2ccccc2)COC(=O)[C@H](Cc2ccc(F)cc2)CC/C=C/C[C@@H]1CC(=O)N(CCO)Cc1ccccc1	0.9
Cc1cccc(C(=O)OC(C)C(=O)NCC2CCCCC2)c1O (stereo not given)	-6.2
O=C(Nc1ccc2c(c1)CCC2)c1cc(F)cc(F)c1	-0.9
COc1cccc(C(=O)NCC(c2cccs2)N2CCOCC2)c1 (stereo not given)	-4.0
Cn1c(SCC(=O)NNC(=O)c2ccccc2Br)nnc1C(F)(F)F	4.6
C=CC[C@@H](CC/C=C/C=C/CC/C=C\[C@@H]1CSC([C@@H]2C[C@@H]2C)=N1)OC	-4.4
COc1ccc(NC(=O)CN(C)C(=O)c2cc(C)on2)cc1	2.2
C=CCC[C@@H](Cc1ccc(F)cc1)C(=O)OC[C@H](C)NC(=O)[C@@H](CC=C)CC(=O)N[C@@H](CO)Cc1ccccc1	-6.3
COc1cc(=O)[nH]c(SCC(=O)Nc2ccc3ccccc3c2)n1	-3.6
N#CC1(NC(=O)COC(=O)c2ccc(-c3ccc(O)cc3)cc2)CCCCC1	0.8
CCCCN(C(=O)c1ccc(-c2ccc(Cl)cc2)o1)c1c(N)n(CCCC)c(=O)[nH]c1=O	6.5
CCOC(=O)[C@H]1[C@H]2COc3ccc(Cl)cc3[C@@H]2N2C(=O)CNC(=O)[C@@]12C	-2.2
O=C(CSc1n[nH]c(=O)n1C1CC1)Nc1ccc(OC(F)(F)F)cc1	-10.8
Cc1ccc(NC(=O)COC(=O)c2c[nH]c3ccccc23)cc1C	-7.4
Cc1ccsc1C(=O)OCC(=O)c1ccc(OC(F)F)cc1	-3.3
C[C@H](CO)N1C[C@H](C)[C@@H](CN(C)C(=O)NC2CCCCC2)Oc2c(NC(=O)C3CC3)cccc2C1=O	3.4
O=C(CN1CCN(C(=O)c2ccc(-c3nc4ccccc4s3)o2)CC1)Nc1ccc(F)cc1	47.1
CC1CCCCC1NC(=O)Cn1c(=O)cnc2ccccc21 (stereo not given)	-2.8
Cc1nnc(SCC(=O)c2c[nH]c3ccccc23)n1C1CC1	-2.0
CN(C)S(=O)(=O)c1cccc(NC(=O)COC(=O)C2CCN(C(=O)c3ccc(F)cc3)CC2)c1	-7.2
CS(=O)(=O)c1ccc(NC(=O)c2ccccc2-n2cnnn2)cc1	-1.8
C#CCCc1cscc1/C=[N+](\[O-])c1ccc(C(=O)OCC)cc1	96.5
Cc1ccc(S(=O)(=O)NC(CC(C)C)C(=O)N2CCN(C/C=C/c3ccccc3)CC2)cc1 (stereo not given)	60.7
CCn1nnc2cc(C(=O)OCC(=O)N(C)Cc3cccc(F)c3)ccc21	14.7

Only part of the results is shown, so the mix of outcomes need not match the whole.
